High-throughput results deposited in PubChem by ICCB-Longwood Screening Facility, Harvard Medical School.
Anaer choline gr: growth inhibitors of anaerobic choline-fed gram-negatives, minimal medium, absorbance; AID 1963822, 2024; calls only; actives 0.2% (n = 55,000); Gram-negative bacterium anaerobic choline minimal medium; active compounds read low; many inactives read as strong as hits in the columns shown;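 active means growth z-score on choline under -2 at 7 or 20 h with little or no fall on glycerol, limits in tiers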;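 further: stock transfer was 300 nL into about 50 µL; the organism is E. coli; final concentration not given here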
Anaer choline gr early: recorded beside Anaer choline gr, whose call it bears; z-score; measured here: choline growth z-score, timepoint 1;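 score of optical density at 7 h as mean of two plates; lower means less growth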
An asterisk follows results filed as active; i = inactive; & = joins results of further samples.

SMILES | Anaer choline gr | Anaer choline gr early
CN1CCN(c2cc(C(=O)O)c3cc(NC(=O)c4ccc(Br)cc4)ccc3n2)CC1 | i | -1.5
COc1ccc(Cc2nn3c(CSc4ccccc4)nnc3s2)cc1 | i | -0.11
O=C(CN1C(=O)COc2ccc(C(=O)N3CCCC3)cc21)Nc1ccncc1 | i | -0.34
CCCn1c(CCc2cccc(NS(C)(=O)=O)c2)nc2ccccc21 | i | -0.42
O=C(NCc1cccnc1)c1cnn2c(C(F)(F)F)cc(-c3ccccc3)nc12 | i | 0.64
O=C(CCn1cnc2onc(-c3ccccc3Cl)c2c1=O)N1CCc2ccccc21 | i | -0.31
COc1ccc(OC)c(NC(=O)NCCCn2c(-c3ccc(F)cc3)nc3cccnc32)c1 | i | 1.8
Cc1nn(-c2nc3ccccc3n2C)c2c1C(c1ccc(Cl)cc1)CC(=O)N2 (stereo not given) | i | 2.5
CN1C(=O)C2(CCN(C(=O)NC3CCCCC3)C2)c2ccccc21 (stereo not given) | i | 0.92
c1ccc(-c2cc(NC3CCCCC3)n3nc(-c4cccnc4)nc3n2)cc1 | i | -0.69
Cc1cc2nc(C)c(=O)n(Cc3ccc(C(=O)NCCc4c[nH]c5ccc(Cl)cc45)cc3)c2cc1C | i | 0.74
CN1CCN(c2cc(-c3nc(-c4cccc(F)c4)no3)c3ccccc3n2)CC1 | i | 0.58
O=C(NCc1c(-c2ccccc2)nc2n1CCS2)c1c(F)cccc1F | i | 0.81
C=CCNC(=O)c1cnc2sccn2c1=O | i | -1.2
O=C(Nc1ccncc1)c1cc([N+](=O)[O-])ccc1Cl | i | 0&-0.06&-1&-0.16
CCC(C)C(NC(=O)C(CCC(=O)O)NC(=O)C(CC(C)C)NC(=O)C1CN=C(C(N)C(C)C)S1)C(=O)NC1CCCCNC(=O)C(CC(N)=O)NC(=O)C(CC(=O)O)NC(=O)C(Cc2cnc[nH]2)NC(=O)C(Cc2ccccc2)NC(=O)C(C(C)CC)NC(=O)C(CCCN)NC1=O (stereo not given) | i | 0.41
CCC(C)NC(=O)c1ccc(CN2C(=O)CSc3ncccc32)cc1 (stereo not given) | i | 0.05
COc1ccc(-n2nnnc2C2(Nc3ccc4c(c3)OCCO4)CCCC2)cc1 | i | -0.14
Cc1cccc(N2CCN(S(=O)(=O)c3cc(-c4cc(C(F)(F)F)[nH]n4)sc3C)CC2)c1C | i | 0
COc1ccccc1CNC(=O)c1nc[nH]c1C(=O)NCc1cccnc1 | i | -0.01
COc1ccc(NC(=O)CSC2=Nc3ccccc3N=C(c3cccc(Cl)c3)C2)cc1OC | i | 0.98
Nc1nc(-c2ccccc2Cl)nn1C(=O)C1CC1 | i | -1.1
COc1ccc(CNC(=O)C2CCCN(c3ccc4cc(S(=O)(=O)N5CCCC5)ccc4n3)C2)cc1 (stereo not given) | i | 0.51
COc1cccc(CC(=O)NCCc2nc(-c3ccccc3)n[nH]2)c1 | i | 0.09
Cc1cc(NS(=O)(=O)c2cc(-c3noc(C(=O)N4CCCCC4)n3)ccc2C)no1 | i | -0.19
COc1ccc(CC(=O)Nc2cccc3nsnc23)cc1 | i | 0.48
CN(CC(=O)N1CCN(c2ccccc2F)CC1)S(=O)(=O)c1c[nH]c(C(=O)N2CCCCC2)c1 | i | -0.57
CCOc1ccc(NC(=O)CCc2nnc(C(=O)Nc3cccc(Cl)c3)s2)cc1 | i | -1.3
C=CCN(CC=C)c1cc(CCC)nc2nc(-c3cccnc3)nn12 | i | 0.36
CCc1ccc(NC(=O)C2CCCN2S(=O)(=O)c2cc3c(cc2C)NC(=O)CO3)cc1 (stereo not given) | i | 0.03

5 entries picked at random from those above, as already listed:
SMILES | Anaer choline gr | Anaer choline gr early
C=CCNC(=O)c1cnc2sccn2c1=O | i | -1.2
CCC(C)NC(=O)c1ccc(CN2C(=O)CSc3ncccc32)cc1 (stereo not given) | i | 0.05
CCc1ccc(NC(=O)C2CCCN2S(=O)(=O)c2cc3c(cc2C)NC(=O)CO3)cc1 (stereo not given) | i | 0.03
COc1ccccc1CNC(=O)c1nc[nH]c1C(=O)NCc1cccnc1 | i | -0.01
C=CCN(CC=C)c1cc(CCC)nc2nc(-c3cccnc3)nn12 | i | 0.36

Continued.
SMILES | Anaer choline gr | Anaer choline gr early
CCCCN(C)C(=O)Cc1c(C(=O)O)c(C)cn1CC | i | -0.26
Cc1ccc(S(=O)(=O)N2CCCC(c3nc(-c4cccnc4)no3)C2)cc1 (stereo not given) | i | -0.37
COCCNC(=O)c1ccc2c(c1)N(Cc1ccccc1)C(=O)CS2=O (stereo not given) | i | 0.02
CC(C)NS(=O)(=O)c1ccc(-c2ccno2)s1 | i | -2.7
Cc1c(C(=O)NCCc2ccc(Cl)cc2)oc2ccc(S(=O)(=O)N3CCC(C)CC3)cc12 | i | 0.43
COc1ccccc1C1CC(=O)Nc2c(S(=O)(=O)c3ccccc3)csc21 (stereo not given) | i | 0.71
CC(C)C(=O)Nc1ccc2c(c1)oc(=O)n2C | i | -0.76
CCc1nc(-c2cc(S(=O)(=O)N3CCCC(C(=O)Nc4ccccc4OC)C3)c(C)s2)no1 (stereo not given) | i | 0.26
Cc1cc(C=Cc2ccc3cc(N(C)C)ccc3[n+]2C)c(C)n1-c1ccccc1 | i | -1.2
O=S(=O)(Nc1cc(F)cc(F)c1)c1ccc2nncn2c1 | i | -1.3

Full records, quoted from the list:
Cc1ccc(S(=O)(=O)N2CCCC(c3nc(-c4cccnc4)no3)C2)cc1 (stereo not given) reads Anaer choline gr: i; Anaer choline gr early: -0.37
COCCNC(=O)c1ccc2c(c1)N(Cc1ccccc1)C(=O)CS2=O (stereo not given) reads Anaer choline gr: i; Anaer choline gr early: 0.02

Further structures.
SMILES | Anaer choline gr | Anaer choline gr early
COc1ccc(CN2CCCC2c2cc(C(C)C)on2)c(OC)c1 (stereo not given) | i | -1.1
COc1ccc(Nc2nc(-c3nnn(-c4cccc(Cl)c4)c3C)ns2)cc1OC | i | 0.21
O=C(Nc1cccc(Br)c1)c1cccc(Nc2ncc(-c3ccc(F)cc3)cn2)c1 | i | 0.38
CCOC(=O)c1ccccc1NC(=O)Cn1cc(C(=O)c2ccc(OC)cc2)c(=O)c2ccc(C)nc21 | i | 0.49
CCCCC(=O)Nc1nonc1-c1ccc(OCC)c(C)c1 | i | 1.3
CCN(CC)S(=O)(=O)c1ccc(S(=O)(=O)N(Cc2ccc(F)cc2)Cc2cccc(OC)c2OC)cc1 | i | 0.87
CCCCCNC(=O)C1CC(=O)N(CCc2c[nH]c3ccc(Cl)cc23)C1 (stereo not given) | i | 0.36
Cc1cc(C)c2c(CC(=O)Nc3sc4c(c3C(=O)NCC3CCCO3)CCC4)coc2c1 (stereo not given) | i | -2.2
CN(C)C(=O)CN1CCN(c2ccc(NC(=O)C3CCC3)c(C(=O)O)c2)CC1 | i | 0.4
CC1=NS(=O)(=O)c2cc(S(=O)(=O)CC(=O)NC3CCCCC3)ccc2N1 | i | 0.16

Four compounds from above, sorted by the value under Anaer choline gr early, descending:
SMILES,Anaer choline gr early
CN(C)C(=O)CN1CCN(c2ccc(NC(=O)C3CCC3)c(C(=O)O)c2)CC1,0.4
O=C(Nc1cccc(Br)c1)c1cccc(Nc2ncc(-c3ccc(F)cc3)cn2)c1,0.38
COc1ccc(Nc2nc(-c3nnn(-c4cccc(Cl)c4)c3C)ns2)cc1OC,0.21
COc1ccc(CN2CCCC2c2cc(C(C)C)on2)c(OC)c1 (stereo not given),-1.1

(continued)
SMILES | Anaer choline gr | Anaer choline gr early
Cc1noc2c1C(c1ccsc1)C1=C(CC(c3ccccc3)CC1=O)N2 (stereo not given) | i | -0.62
COc1ccccc1/C=C/c1nc(-c2ccc3c(c2)[nH]c(=O)n3C(C)C)no1 | i | 0.84
CC(C)Cn1cnc2nc(CSc3ccccc3NC(=O)COc3ccccc3Cl)cc(=O)n21 | i | 1.5
COC(=O)C1=C(C)NC(C)=C(C(=O)OCCCN2CCC(c3ccccc3)(c3ccccc3)CC2)[C@H]1c1cccc([N+](=O)[O-])c1 | i | 0.65
CCCN1C(SCC(=O)Nc2cccc(OC)c2)=NS(=O)(=O)c2ccccc21 | i | -0.79
Cc1ccc(COC2CN(S(=O)(=O)c3cccc4nsnc34)C2)cc1 | i | -0.35
CCCCCCCC(=O)CC[C@@H]1[C@@H](C/C=C\CCCC(=O)OC(C)C)[C@@H](O)C[C@H]1O | i | 0.26
COCC(=O)N1CCCC(C)(C(=O)NCc2cccc(F)c2)C1 (stereo not given) | i | -0.64
CCn1c(=O)c2c(C(=O)NCCCOC(C)C)cc(=O)n(CC)c2n(C)c1=O | i | -0.9
Cc1ccc2c(c1)C(c1ccccc1)N(C(=O)c1cccc(Br)c1)CC(=O)N2 (stereo not given) | i | 0.27
O=C(Cn1cnc2c(nc3n2CCCCC3)c1=O)N1CCN(c2ccc(Cl)cc2)CC1 | i | -1.3
Cc1cc(C)cc(NC(=O)CCc2nc(CSc3nc4ccccc4[nH]3)no2)c1 | i | -0.84
OCCN1CCn2c(nc3cc(Cl)ccc32)C1 | i | -1.7
CC(C)n1cnc2nc(COc3ccc(Cl)cc3NC(=O)Nc3ccccc3)cc(=O)n21 | i | -0.83
Cc1nc(-c2ccc(C)c(S(=O)(=O)N3CCCC3)c2)no1 | i | -1.2
COc1ccc(CNC(=O)c2cnn3c(-c4ccc(C)c(C)c4)ccnc23)cc1 | i | -0.14
Nc1ccn(C2CCC(CO)O2)c(=O)n1 (stereo not given) | i | 0.58
Cc1ccc2c(c1)NC(=O)c1cc(S(=O)(=O)N3CC(C)OC(C)C3)c(Cl)cc1O2 (stereo not given) | i | -0.48
O=C(COc1ccc(Br)cc1)Oc1cccc(-n2cnnn2)c1 | i | -0.49
CCCc1cc(=O)[nH]c(SCc2nc(-c3ccc(C)cc3)oc2C)n1 | i | -0.72
CCOC(=O)c1cnn2c(-c3ccc(Cl)cc3)ccnc12 | i | 0.94
COC(=O)CNC(=O)N1CCCC1c1cc(C(C)C)on1 (stereo not given) | i | 1.6
Cc1csc(-c2cc(S(=O)(=O)N3CCCCC3)cn2CC(=O)N2CCCCC2)n1 | i | -1.2
CC(C)Cc1nc(CNC(=O)c2coc(C3CC3)n2)no1 | i | 0.28
Cn1c(SCC(=O)Nc2ncn[nH]2)nc2ccsc2c1=O | i | 1.4
COC(=O)c1ncn2c1C(=O)N(c1ccc(F)cc1)C(C)(C(=O)NC1CCCC1)C2 (stereo not given) | i | 0.58
CCc1onc(C)c1C1CCCN1Cc1ccc(OC)c(OC)c1 (stereo not given) | i | -0.61
C(=C\c1nn2c(CCc3ccccc3)nnc2s1)/c1ccccc1 | i | 0.18
O=S1(=O)C[C@H](NCCc2ccc(F)cc2)[C@@H](S(=O)(=O)c2ccc(F)cc2)C1 | i | -0.79
Cn1nc(-c2nc(-c3ccccc3)no2)c2c1CCN(S(=O)(=O)c1ccc(Cl)cc1)C2 | i | 0.56
CCc1ccc(OCc2nc(C)c(C(=O)Nc3nccs3)s2)cc1 | i | 0.75
Cc1ccc(C)c(S(=O)(=O)Nc2ccc3nncn3n2)c1 | i | 0.31
Cc1cc(N2CCC(C)CC2)n2nc(CN3CCCC(C)C3)nc2n1 (stereo not given) | i | 0.93
CC[C@@]1(O)C[C@H](O[C@H]2C[C@H](N(C)C)[C@H](O[C@H]3C[C@H](O)[C@H](O[C@H]4CCC(=O)[C@H](C)O4)[C@H](C)O3)[C@H](C)O2)c2c(cc3c(c2O)C(=O)c2c(O)cccc2C3=O)[C@H]1C(=O)OC | i | -0.38
CC(=O)OCC(=O)[C@]12N=C(C)O[C@@H]1C[C@H]1[C@@H]3CCC4=CC(=O)C=C[C@]4(C)[C@@H]3C(O)C[C@@]12C (stereo not given in full) | i | -0.42
CCCCn1c(=O)c2c(nc3n2CCCCN3c2ccc(OCC)cc2)n(C)c1=O | i | -0.03
CCOc1nc2c(c(C)nn2-c2ccc(C)cc2)c(C)c1CCC(=O)Nc1ccc(OC)cc1OC | i | 0.03
Cn1c(=O)n(C)c2cc(NC(=O)Nc3ccc(F)cc3)ccc21 | i | 0.34
CN(C(Cc1ccc(OS(=O)(=O)c2cccc3cnccc23)cc1)C(=O)N1CCN(c2ccccc2)CC1)S(=O)(=O)c1cccc2cnccc12 (stereo not given) | i | 0.28
O=S(=O)(c1ccc(Cl)cc1)N1CCN(c2ncnc3c2nnn3-c2ccc(F)cc2)CC1 | i | 0.48
CCOc1ccc(OCC)c(NS(=O)(=O)c2c(C)sc(C)c2-c2cc(C)[nH]n2)c1 | i | -0.57
C=Cc1ccc(CSc2nnc3n(CC4CCCO4)c(=O)c4sccc4n23)cc1 (stereo not given) | i | -1.5
C=CCn1c(=O)c2ccc(C(=O)NC(C)C)cc2n2c(=O)n(CC(=O)NC3CCCC3)nc12 | i | -0.84
CCC(=O)Nc1ccc2c(c1)nc(CCNC(=O)C1CC1)n2C | i | 0.75
Cc1ccc(NC(=O)Cc2noc3ccccc23)cc1F | i | -0.81
C=CCN1CCc2c(cc(O)c(O)c2Br)[C@@H](c2ccccc2)C1 | i | -0.7
O=C(Nc1cccc(Br)c1)C1CCN(c2cc(C(=O)N3CCCCC3)ccn2)CC1 | i | -1.6
O=C1c2ccccc2Sc2cc(-c3noc(CNS(=O)(=O)c4ccccc4)n3)ccc2N1C1CC1 | i | -0.2
Cc1ccc(CS(=O)(=O)c2cn(CC(=O)N(C)c3ccccc3)c3ccccc23)cc1 | i | -0.31
COc1ccc(OCC(O)Cn2c(C3CC(=O)N(c4ccccc4)C3)nc3ccccc32)cc1 (stereo not given) | i | 0.83
Cc1ccc2[nH]c(=O)c(-c3noc(CCCC(N)=O)n3)cc2c1 | i | -0.4

Some of the compounds tested; count on the stated rates, not on these rows.
